Screening data (PubChem BioAssay)
Vaccinia inh: Vaccinia orthopox stage-specific inhibition | AID 1053133 | Vaccinia-infected cells, mCherry/Venus stage reporter fluorescence; stronger effect = lower value; some inactives read as strong as hits | activity change (mCherry), % (test concentration not listed) | actives 0.01% (n = 89,000);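 active = mCherry past -33% and 40 or more points under the early reporter, replicates agreeing; inconclusive = past -33% without that gap or agreement; tested in A549 cells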;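 note: scaled between vehicle wells and reference inhibitor wells; 23 nL library stock went into each well; one replicate is shown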
Vaccinia inh Venus: second read-out of Vaccinia inh, no call of its own (marks repeat the call); activity change (Venus), %; measured here: Venus reporter, other viral stage;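 negative = less Venus signal; first of two replicates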
* marks the source's active call; other numbers are inactive results.

For O=C(Nc1ccc(Cl)c(Cl)c1)N[C@H]1CC[C@H](CCn2cc(C3CCCC3)nn2)O[C@H]1CO the results were Vaccinia inh 10 and Vaccinia inh Venus 9.
Cc1noc(C)c1S(=O)(=O)Nc1ccc2c(c1)C(=O)N([C@H](C)CO)C[C@@H](C)[C@@H](CN(C)C(=O)Nc1ccc3c(c1)OCO3)OCCCC[C@@H](C)O2 was read as Vaccinia inh -25 and Vaccinia inh Venus -16.
Screening Cc1ccccc1-c1cnc2c(c1)C(=O)N([C@@H](C)CO)C[C@@H](C)[C@@H](CN(C)C(=O)c1ccncc1)O2 returned Vaccinia inh -12 and Vaccinia inh Venus -4.
`CNC[C@@H]1Oc2ccc(NS(=O)(=O)c3ccc(Cl)cc3)cc2CC(=O)N([C@@H](C)CO)C[C@H]1C` gave Vaccinia inh 12 and Vaccinia inh Venus 4.
Screening C[C@H](CO)N1C[C@H](C)[C@H](CN(C)Cc2ccc3c(c2)OCO3)Oc2ccc(NC(=O)C3CCCCC3)cc2C1=O returned Vaccinia inh -7 and Vaccinia inh Venus -4.
Cc1ccc(CN(C)C[C@H]2OCc3cnnn3CCCC(=O)N([C@H](C)CO)C[C@H]2C)cc1 was read as Vaccinia inh 7 and Vaccinia inh Venus 5.
O=C(C[C@@H]1CC[C@H](NC(=O)c2ccccc2)[C@@H](CO)O1)NCc1ccc(Oc2ccccc2)cc1 was read as Vaccinia inh -5 and Vaccinia inh Venus 0.
N#C[C@H]1[C@H](c2ccc(C3=CCCCC3)cc2)[C@@H](CO)N1S(=O)(=O)c1cccc(F)c1 was read as Vaccinia inh -21 and Vaccinia inh Venus -17.
`C[C@@H]1CN([C@H](C)CO)C(=O)c2cc(C#Cc3cccnc3)cnc2O[C@@H]1CN(C)Cc1ccc(F)cc1` gave Vaccinia inh 14 and Vaccinia inh Venus 17.
Screening O=C(C[C@H]1C[C@H]2c3cc(NC(=O)CC4CC4)ccc3O[C@H]2[C@H](CO)O1)NCc1ccc(Cl)cc1 returned Vaccinia inh -11 and Vaccinia inh Venus -8.
`C[C@H]1CN([C@@H](C)CO)C(=O)c2cc(NC(=O)c3ccncc3)ccc2O[C@H]1CN(C)Cc1ccc(C(=O)O)cc1` gave Vaccinia inh 5 and Vaccinia inh Venus 0.
Screening O=C(C[C@@H]1CC[C@@H](NC(=O)c2ccncc2)[C@@H](CO)O1)NCc1ccncn1 returned Vaccinia inh -1 and Vaccinia inh Venus -1.
Screening O=C(NCC[C@@H]1CC[C@H](NC(=O)c2cnccn2)[C@H](CO)O1)Nc1ccc(Cl)cc1 returned Vaccinia inh 3 and Vaccinia inh Venus 11.
`COc1ccc(S(=O)(=O)N(C)C[C@@H]2Oc3ncc(C#CC4(O)CCCC4)cc3C(=O)N([C@H](C)CO)C[C@@H]2C)cc1` gave Vaccinia inh -17 and Vaccinia inh Venus -9.
CCC(=O)Nc1ccc2c(c1)OC[C@H](C)N(C(=O)C1CCC1)C[C@@H](C)[C@@H](OC)CN(C)C2=O was read as Vaccinia inh 9 and Vaccinia inh Venus 2.
`C[C@@H]1CN([C@H](C)CO)C(=O)c2cc(-c3cncnc3)cnc2O[C@H]1CN(C)CC1CCOCC1` gave Vaccinia inh 15 and Vaccinia inh Venus 9.
COCC(=O)Nc1ccc2c(c1)C(=O)N(C)C[C@@H](OC)[C@H](C)CN(Cc1ccccc1OC)[C@H](C)CO2 was read as Vaccinia inh -10 and Vaccinia inh Venus -6.
For CCCNC(=O)[C@@H]1[C@@H](CO)[C@@H]2Cn3c(ccc(-c4ccccc4F)c3=O)[C@H]1N2C(=O)CC the results were Vaccinia inh 4 and Vaccinia inh Venus 2.
`COc1ccc(NC(=O)Nc2ccc3c(c2)CC(=O)N([C@H](C)CO)C[C@H](C)[C@H](CN(C)Cc2ccc4c(c2)OCO4)O3)cc1` gave Vaccinia inh -13 and Vaccinia inh Venus 0.
Screening Cc1ccc(S(=O)(=O)Nc2ccc3c(c2)C(=O)N([C@@H](C)CO)C[C@H](C)[C@@H](CN(C)Cc2ccc4c(c2)OCO4)OCCCC[C@H](C)O3)cc1 returned Vaccinia inh inconclusive.

The final two records of the section above are carried over, then new ones follow.
`COc1ccc(NC(=O)Nc2ccc3c(c2)CC(=O)N([C@H](C)CO)C[C@H](C)[C@H](CN(C)Cc2ccc4c(c2)OCO4)O3)cc1` gave Vaccinia inh -13 and Vaccinia inh Venus 0.
Screening Cc1ccc(S(=O)(=O)Nc2ccc3c(c2)C(=O)N([C@@H](C)CO)C[C@H](C)[C@@H](CN(C)Cc2ccc4c(c2)OCO4)OCCCC[C@H](C)O3)cc1 returned Vaccinia inh inconclusive.
For O=C(O)C[C@@H]1C[C@@H]2c3cc(NC(=O)C4CCC4)ccc3O[C@@H]2[C@@H](CO)O1 the results were Vaccinia inh 12 and Vaccinia inh Venus 10.
For CCCNC(=O)N1CC2(CN(C(=O)CC)C2)c2c(n(C)c3cc(OC)ccc23)[C@@H]1CO the results were Vaccinia inh 16 and Vaccinia inh Venus 4.
Screening O=C(C[C@H]1C=C[C@H](NS(=O)(=O)c2cccc(F)c2)[C@H](CO)O1)NCc1ccc2c(c1)OCO2 returned Vaccinia inh -5 and Vaccinia inh Venus -1.
Cc1ccccc1-c1cnc2c(c1)C(=O)N([C@H](C)CO)C[C@@H](C)[C@H](CN(C)Cc1ccccc1F)O2 was read as Vaccinia inh -29 and Vaccinia inh Venus -13.
Screening CC(C)NC(=O)Nc1ccc2c(c1)CC(=O)N([C@H](C)CO)C[C@H](C)[C@@H](CN(C)S(=O)(=O)c1ccccc1)O2 returned Vaccinia inh -13 and Vaccinia inh Venus -11.
Screening COc1ccc(NC(=O)Nc2cccc3c2O[C@H](CN(C)Cc2ccc(C(=O)Nc4ccccc4N)cc2)[C@H](C)CN([C@@H](C)CO)C3=O)cc1 returned Vaccinia inh 2 and Vaccinia inh Venus -1.
Screening CC(=O)NC[C@H]1[C@@H](c2ccc(C#Cc3ccccc3F)cc2)[C@@H](CO)N1C(C)=O returned Vaccinia inh -8 and Vaccinia inh Venus -5.
For C[C@H]1CCCCO[C@@H](CN(C)S(=O)(=O)c2ccccc2)[C@@H](C)CN([C@@H](C)CO)C(=O)c2cc(NS(=O)(=O)c3ccc(F)cc3)ccc2O1 the results were Vaccinia inh -18 and Vaccinia inh Venus -6.
For C[C@@H](NC(=O)C[C@@H]1CC[C@@H](NS(=O)(=O)c2cccc(F)c2)[C@H](CO)O1)c1ccccc1 the results were Vaccinia inh 6 and Vaccinia inh Venus 6.
For C[C@@H]1CN([C@H](C)CO)C(=O)c2ccccc2-c2ccccc2CO[C@@H]1CN(C)S(=O)(=O)c1cccc(C#N)c1 the results were Vaccinia inh 1 and Vaccinia inh Venus -20.
`C[C@H]1CN([C@@H](C)CO)C(=O)c2cc(NS(=O)(=O)c3ccc(F)cc3)ccc2O[C@H]1CN(C)Cc1ccc(-c2ccccc2)cc1` gave Vaccinia inh -11 and Vaccinia inh Venus -11.
Screening O=C(NCc1cccc(F)c1)[C@H]1[C@H](CO)[C@H]2Cn3c(ccc(-c4cccnc4)c3=O)[C@@H]1N2CC1CC1 returned Vaccinia inh 4 and Vaccinia inh Venus -1.
For O=C(NCC[C@@H]1CC[C@@H](NS(=O)(=O)c2cccc(F)c2)[C@H](CO)O1)C1CC1 the results were Vaccinia inh 8 and Vaccinia inh Venus 5.
`C[C@@H]1CN([C@@H](C)CO)C(=O)Cc2cc(NC(=O)Nc3ccc(F)cc3)ccc2O[C@@H]1CN(C)Cc1ccc(C(F)(F)F)cc1` gave Vaccinia inh inconclusive.
CC(C)C#Cc1ccc([C@H]2[C@H]3CN(C(=O)c4ccc5c(c4)OCO5)CC(=O)N3[C@H]2CO)cc1 was read as Vaccinia inh -13 and Vaccinia inh Venus -9.
CC(C)C#Cc1ccc2c(c1)O[C@@H](CN(C)CC1CCOCC1)[C@@H](C)CN([C@@H](C)CO)S2(=O)=O was read as Vaccinia inh -13 and Vaccinia inh Venus -4.
For COc1ccc(S(=O)(=O)N[C@H]2C=C[C@H](CC(=O)N3CCC(Cc4ccccc4)CC3)O[C@H]2CO)cc1 the results were Vaccinia inh -28 and Vaccinia inh Venus -24.
For CCNC(=O)C[C@@H]1CC[C@H]2[C@@H](COc3ccc(NC(=O)Nc4cccc(C)c4)cc3C(=O)N2C)O1 the results were Vaccinia inh 2 and Vaccinia inh Venus 6.
C[C@@H](NC(=O)C[C@@H]1C[C@H]2c3cc(NC(=O)c4ccc5c(c4)OCO5)ccc3O[C@H]2[C@H](CO)O1)c1ccccc1 was read as Vaccinia inh -11 and Vaccinia inh Venus -10.
For COc1ccc2c3c([nH]c2c1)[C@H](CO)N(Cc1nccs1)CC31CN(C(=O)C2CC2)C1 the results were Vaccinia inh 7 and Vaccinia inh Venus 8.
Screening Cc1cccc(S(=O)(=O)N2CC[C@@H]3[C@H]2c2cc(-c4ccccc4F)ccc2N(C)[C@H]3CO)c1 returned Vaccinia inh -31 and Vaccinia inh Venus -21.
`C[C@@H]1CN([C@@H](C)CO)C(=O)c2cc(NC(=O)Nc3cccc4ccccc34)ccc2O[C@H]1CN(C)Cc1ccccc1` gave Vaccinia inh -34 and Vaccinia inh Venus -24.
O=C(CCN1CCCCC1)N[C@@H]1CC[C@@H](CC(=O)N2CCC(Cc3ccccc3)CC2)O[C@H]1CO was read as Vaccinia inh -4 and Vaccinia inh Venus -6.
CCCNC(=O)C[C@H]1CC[C@@H]2[C@H](COc3ccc(NC(=O)c4cccc(OC)c4)cc3C(=O)N2C)O1 was read as Vaccinia inh 15 and Vaccinia inh Venus 15.
`CCC(=O)Nc1ccc2c(c1)OC[C@@H](C)N(C(=O)C1CC1)C[C@H](C)[C@H](OC)CN(C)C2=O` gave Vaccinia inh 5 and Vaccinia inh Venus 5.
For COc1ccc(-c2ccc3c(c2)O[C@@H](CN(C)Cc2cccnc2)[C@@H](C)CN([C@@H](C)CO)S3(=O)=O)cc1 the results were Vaccinia inh -32 and Vaccinia inh Venus -27.
For CCS(=O)(=O)NCC[C@H]1CC[C@H](NS(=O)(=O)c2ccccc2C)[C@@H](CO)O1 the results were Vaccinia inh -1 and Vaccinia inh Venus -4.
O=C(C[C@H]1CC[C@@H]2[C@H](COC[C@@H](O)CN2C(=O)c2ccccn2)O1)NC1CCC1 was read as Vaccinia inh -2 and Vaccinia inh Venus -4.
CO[C@H]1CN(C)C(=O)c2cc(NS(=O)(=O)c3ccc(F)cc3)ccc2OC[C@@H](C)NC[C@H]1C was read as Vaccinia inh 5 and Vaccinia inh Venus 3.
C[C@@H]1CN([C@H](C)CO)C(=O)Cc2cc(NC(=O)Cn3cnnn3)ccc2O[C@H]1CN(C)CC1CCCCC1 was read as Vaccinia inh -9 and Vaccinia inh Venus -1.
`COc1cccc(-c2ccc3c(c2)[C@@H]2[C@@H](CCN2C(=O)C2CCCCC2)[C@@H](CO)N3)c1` gave Vaccinia inh -28 and Vaccinia inh Venus -11.
`C[C@@H]1CN([C@@H](C)CO)C(=O)c2cccc(NC(=O)c3nc4ccccc4s3)c2O[C@H]1CN(C)Cc1ccc(-c2ccccc2)cc1` gave Vaccinia inh -30 and Vaccinia inh Venus -16.
NCCCCCNC(=O)[C@@H]1C[C@@H]2C(=O)N[C@@H](Cc3ccccc3)C(=O)N2[C@@H]1c1ccc(O)cc1 was read as Vaccinia inh 5 and Vaccinia inh Venus 8.
Screening CN(C)CC(=O)N1[C@H](C#N)[C@H](c2ccc(-c3cccc(C(=O)N(C)C)c3)cc2)[C@H]1CO returned Vaccinia inh -2 and Vaccinia inh Venus -5.
For C[C@@H]1CN([C@H](C)CO)C(=O)c2cc(-c3cccc(C#N)c3)cnc2O[C@@H]1CN(C)C(=O)c1cnccn1 the results were Vaccinia inh 5 and Vaccinia inh Venus -2.
`Nc1ccccc1-c1cn(CC(=O)Nc2ccon2)nn1` gave Vaccinia inh 15 and Vaccinia inh Venus 16.
Cc1ccc(S[C@]2(C(=O)NCCCN(C)C)CC(=O)N(C3CCCCC3)[C@@H]2c2ccc(CO)cc2I)cc1 was read as Vaccinia inh -25 and Vaccinia inh Venus -18.
`C[C@H]1CN([C@@H](C)CO)C(=O)c2cc(NC(=O)Nc3ccccc3)ccc2O[C@@H]1CN(C)Cc1ccc(Cl)c(Cl)c1` gave Vaccinia inh -16 and Vaccinia inh Venus -11.
`C[C@@H]1CN([C@H](C)CO)C(=O)c2cccc(NC(=O)c3ccc(-c4nccs4)cc3)c2O[C@@H]1CN(C)C(=O)NC1CCCCC1` gave Vaccinia inh -18 and Vaccinia inh Venus -14.

3 compounds out of the list, ordered by heavy-atom count, rising:
Screening O=C(C[C@H]1C=C[C@H](NS(=O)(=O)c2cccc(F)c2)[C@H](CO)O1)NCc1ccc2c(c1)OCO2 returned Vaccinia inh -5 and Vaccinia inh Venus -1.
For COc1ccc(-c2ccc3c(c2)O[C@@H](CN(C)Cc2cccnc2)[C@@H](C)CN([C@@H](C)CO)S3(=O)=O)cc1 the results were Vaccinia inh -32 and Vaccinia inh Venus -27.
`C[C@@H]1CN([C@@H](C)CO)C(=O)Cc2cc(NC(=O)Nc3ccc(F)cc3)ccc2O[C@@H]1CN(C)Cc1ccc(C(F)(F)F)cc1` gave Vaccinia inh inconclusive.

Structures from the list above with a Cl atom, in the order listed:
For O=C(Nc1ccc(Cl)c(Cl)c1)N[C@H]1CC[C@H](CCn2cc(C3CCCC3)nn2)O[C@H]1CO the results were Vaccinia inh 10 and Vaccinia inh Venus 9.
`CNC[C@@H]1Oc2ccc(NS(=O)(=O)c3ccc(Cl)cc3)cc2CC(=O)N([C@@H](C)CO)C[C@H]1C` gave Vaccinia inh 12 and Vaccinia inh Venus 4.
Screening O=C(C[C@H]1C[C@H]2c3cc(NC(=O)CC4CC4)ccc3O[C@H]2[C@H](CO)O1)NCc1ccc(Cl)cc1 returned Vaccinia inh -11 and Vaccinia inh Venus -8.
Screening O=C(NCC[C@@H]1CC[C@H](NC(=O)c2cnccn2)[C@H](CO)O1)Nc1ccc(Cl)cc1 returned Vaccinia inh 3 and Vaccinia inh Venus 11.
`C[C@H]1CN([C@@H](C)CO)C(=O)c2cc(NC(=O)Nc3ccccc3)ccc2O[C@@H]1CN(C)Cc1ccc(Cl)c(Cl)c1` gave Vaccinia inh -16 and Vaccinia inh Venus -11.

A portion of the library; count on the stated rates, not on these rows.
